GIV Gai3 FP – inhibitors of GIV peptide binding to Galpha-i3, primary screen, biochemical, fluorescence polarization, FITC-GIV GBA peptide, rat Galphai3. Guanine nucleotide-binding protein G(i) subunit alpha-3 (Rattus norvegicus), P08753. 90 min; active compounds read low; scaled: aluminum fluoride 0%, vehicle 100%. percent of control (FP), % (concentration not given with the values). hit rate 0.42% among 210,000. AID 1224905, 2016;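 active = replicate mean at 85% of control or lower, very high polarization wells dropped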;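 also: wells of about 15 µL received 100 nL stock; the first replicate is given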
Target sequence (P08753 whole entry, looked up): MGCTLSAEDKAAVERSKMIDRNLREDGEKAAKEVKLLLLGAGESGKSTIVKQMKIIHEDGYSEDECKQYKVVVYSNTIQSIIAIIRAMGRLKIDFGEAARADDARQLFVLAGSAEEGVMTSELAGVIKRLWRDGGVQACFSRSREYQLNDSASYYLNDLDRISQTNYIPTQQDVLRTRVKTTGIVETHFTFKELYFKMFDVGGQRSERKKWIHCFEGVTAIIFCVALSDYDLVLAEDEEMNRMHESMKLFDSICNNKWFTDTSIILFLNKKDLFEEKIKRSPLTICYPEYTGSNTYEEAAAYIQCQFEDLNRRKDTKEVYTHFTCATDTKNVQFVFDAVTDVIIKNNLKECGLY
Numbers without * were called inactive.

Compound	GIV Gai3 FP
CC12c3ccccc3C(c3ccccc31)C1C(=O)N(c3ccc(C#N)cc3)C(=O)C12 (configuration not stated)	103
O=C(Nc1ccc(S(=O)(=O)N2CCCCC2c2cccnc2)cc1)c1cccc(F)c1 (configuration not stated)	111
O=S(=O)(c1ccc(-c2cn3cc(Cl)ccc3n2)cc1)N1CCCCC1	100
O=c1ccc(-c2ccc3c(c2)OCO3)nn1CCc1nc(-c2cccnc2)no1	109
COc1ccc(OC)c(-n2c(CNC(=O)c3ccco3)nnc2SCC(=O)Nc2nc3ccccc3s2)c1	110
Cc1ccc(C(=O)NCCc2sc3nc(-c4ccc(F)cc4)nn3c2C)cc1	97
Cc1ccc(NC(=O)Nc2ccc(Oc3nc4ccccc4n4nnnc34)cc2)cc1	103
N#CC(C(=O)NCc1ccco1)=C(SCc1ccc(Cl)cc1)SCc1ccc(Cl)cc1	100
Cc1ccc(Nc2nc(NCCCOC(C)C)nc3c2cnn3-c2ccccc2)cc1	104
CC1(C)CC(=O)N(CC(=O)O)c2ccccc2S1	104
CC1(C)c2ssc(=S)c2-c2ccccc2N1C(=O)Cc1ccccc1	104
C=CCNC(=S)c1c(-c2ccccc2)c2c3n(c(-c4ccc(Br)cc4)cn13)CCCC2	103

Overlap with the part before: 4 entries; new compounds follow.
Compound	GIV Gai3 FP
Cc1ccc(Nc2nc(NCCCOC(C)C)nc3c2cnn3-c2ccccc2)cc1	104
CC1(C)CC(=O)N(CC(=O)O)c2ccccc2S1	104
CC1(C)c2ssc(=S)c2-c2ccccc2N1C(=O)Cc1ccccc1	104
C=CCNC(=S)c1c(-c2ccccc2)c2c3n(c(-c4ccc(Br)cc4)cn13)CCCC2	103
C=CCOC(=O)C1=C(C)NC2(O)c3ccccc3C(=O)C12O (configuration not stated)	107
COc1ccccc1N1COc2ccc3c(C)cc(=O)oc3c2C1	101
COc1cccc(/C=N/NC(=O)c2nnn(-c3nonc3N)c2CN2CCCCCC2)c1OC	114
CC(C)(C)OC(=O)N1CC=C2C(C#N)=C(N)C(C#N)(C#N)C(c3ccc(C(F)(F)F)cc3)C2C1 (configuration not stated)	112
CCOCCn1cnc2sc(C(=O)N3CCOCC3)c(C)c2c1=O	107
COc1ccc(NC(=O)/C(=C/c2ccc3c(c2)OCO3)NC(=O)c2ccccc2Br)cc1Cl	120
CCOC(=O)c1c(NC(=O)CSc2nnc(CNC(=O)c3ccco3)n2-c2cccc(C)c2)sc2c1CCCC2	106
CCOc1ccc(Nc2nc(NCc3ccco3)c3ccccc3n2)cc1	103
CC(C)NC(=O)c1ccc(-c2nc(CCN(C)C(=O)Nc3ccccc3)no2)cc1	102
Cc1cc(NCCCO)n2c(nc3ccccc32)c1C#N	105
COc1ccc(-c2[nH]nc3c2C(c2ccc(OC(=O)c4ccco4)c(OC)c2)C(C#N)=C(N)O3)cc1 (configuration not stated)	106
Clc1cc(Cl)c2c(c1)C=C1CCCCCC1(N1CCOCC1)O2 (configuration not stated)	104

Remaining list, next part:
Compound	GIV Gai3 FP
c1ccc2c(N3CCOCC3)nnc(N3CCCC3)c2c1	103
COC(=O)c1c(C)oc2ccc(N(C(=O)c3ccccc3)S(=O)(=O)c3ccc(Cl)cc3)cc12	110
O=C1C(=O)N(CCCN2CCOCC2)C(c2ccccc2)/C1=C(\O)c1ccc(F)cc1 (configuration not stated)	102
COc1ccc(N=c2ssc3c2-c2cc(C)ccc2N(C)C3(C)C)c(OC)c1	106
FC(F)(F)c1cccc(-n2cc(-c3ccccc3)c3c(NCCN4CCOCC4)ncnc32)c1	118
CCNS(=O)(=O)c1ccc2c(c1)N(Cc1noc(C)n1)C(=O)CO2	104
CCSc1nnc(-c2nn(C)c3c2CN(S(=O)(=O)c2ccc(C)cc2)CC3)n1CC	106
Cc1ccc(C(C)C)c(Oc2cc(Cl)ccc2NC(=O)c2cc(Br)cc(Br)c2O)c1	115
CCOc1ccc(NC(=O)CSc2nc3c(sc(=S)n3-c3ccc(OCC)cc3)c3nc4ccccc4n23)cc1	98
Cc1cccn2c(=O)c(C(=O)NC3CCCCC3)cnc12	102
Cc1cc(C)cc(Nc2ncnc3c2cnn3C)c1	94
S=c1sc2c(N3CCN(C(c4ccccc4)c4ccc(Cl)cc4)CC3)ncnc2n1-c1ccccc1 (configuration not stated)	110

Additional structures
Compound	GIV Gai3 FP
C(#Cc1ccc(-c2nc(-c3ccccc3)c(-c3ccccc3)[nH]2)cc1)c1ccccc1	104
Cc1ccc(S(=O)(=O)N2CSC[C@@H]2C(=O)NCCc2csc(C)n2)cc1	96
O=C1C(=O)N(c2ccc(F)cc2)C(c2ccc(Br)cc2)/C1=C(/O)c1ccccc1 (configuration not stated)	99
COc1cccc(C2CC(=O)Nc3c2c(C)nn3-c2ccc3nnc(C)n3n2)c1OC1CCCC1 (configuration not stated)	95
O=C(O)CCC(=O)N1c2ccccc2NC2=C(C(=O)CC(c3ccccc3)C2)C1c1cccc(F)c1 (configuration not stated)	108
CC(C)Cc1nnc(-c2ccc3c(c2)OCO3)o1	103
COCCCNC(=O)C1CCN(S(=O)(=O)N(CC(C)C)CC(C)C)CC1	101
Cc1c(S(=O)(=O)Nc2ccc(Cl)cn2)cc(-c2nc(-c3ccccc3)cs2)n1C	100
CC1=NN(c2ccc(C)cc2)C(=O)C1C(c1ccccc1)C1C(=O)N(c2ccc(C)cc2)N=C1C (configuration not stated)	101
CCN(CC)c1ccc2cc(C(=O)NC(C)=O)c(=Nc3ccc(F)cc3F)oc2c1	117
CCCS(=O)(=O)Nc1ccccc1CCc1nc2ccccc2n1CC	103
COc1ccc(N2C(=O)CSC2c2cc3c(cc2[N+](=O)[O-])OCO3)cc1OC (configuration not stated)	111

(list continues)
Compound	GIV Gai3 FP
Brc1cccc(N=c2oc3ccccc3cc2-c2nc(-c3ccccc3)cs2)c1	114
CC(=O)NC1CC(C)(C)N(OC(C)=O)C(C)(C)C1	105
O=C(NCc1cccnc1)c1cccc(CN2C(=O)C3CCCN3C(=O)c3ccccc32)c1 (configuration not stated)	101
Cc1ccc(-c2nc(CS(=O)CC(=O)N3CCC(N4CCCCC4)CC3)c(C)o2)cc1 (configuration not stated)	107
CN(C)CCCNC(=O)/C(=C/c1cn(-c2ccccc2)nc1-c1ccc(Br)cc1)NC(=O)c1ccccc1	106
Cc1ccc(/C=C/c2nc(-c3ccc4oc(C)nc4c3)no2)o1	100
O=C(Nc1cnn(-c2ncc(N3CCSCC3)cn2)c1)C1CCOC1 (configuration not stated)	96
CCOc1ccc(N2C(=O)NC(=O)/C(=C\c3ccc(Br)o3)C2=O)cc1	131
CC(C)(c1nnnn1-c1ccccc1)N1CCCCC1	110
O=C1CCCC2=C1C(CCc1ccccc1)C1=C(CCCC1=O)O2	119
COC(=O)c1cc(C(=O)OC)cc(N2C(=O)CSC2c2cccc(F)c2)c1 (configuration not stated)	105
COCC1=C(C(=O)OC)C(c2cccc(Br)c2)C(C#N)=C(N)O1 (configuration not stated)	112

The last two records of the part before are carried over, then new ones follow.
Compound	GIV Gai3 FP
COC(=O)c1cc(C(=O)OC)cc(N2C(=O)CSC2c2cccc(F)c2)c1 (configuration not stated)	105
COCC1=C(C(=O)OC)C(c2cccc(Br)c2)C(C#N)=C(N)O1 (configuration not stated)	112
O=C(NC1CCCCC1)C1(c2ccc(NS(=O)(=O)c3ccc4c(c3)CCCC4)cc2)CC1	102
Cc1ccc(-c2nc(NC(=O)Nc3ccc(Cl)cc3)sc2C)cc1	99
CNC(=O)CCc1nc2ccccc2n(CC(=O)NCc2ccc(C)cc2)c1=O	95
CCOc1ccc(C2Nc3cccc4cccc(c34)N2)cc1	102
CN(C)C1=NC(C(F)(F)F)(C(F)(F)F)N=C(c2ccc(F)cc2)O1	102
CCOC(=O)c1cnn(-c2ccc(C(=O)N3CCN(c4ccccc4)CC3)cc2)c1N	106
Cc1nc(-c2cc(S(=O)(=O)N3CCCCC3C)c(C)s2)sc1C (configuration not stated)	103
CCOc1ccc(C(=O)NCCc2sc3nc(-c4ccc(C)cc4)nn3c2C)cc1	96
Cc1onc(-c2ccc(F)cc2)c1C(=O)NCc1ccc2c(c1)OCO2	105
COc1ccc(Oc2coc3c(CN4CCCCCC4)c(O)ccc3c2=O)cc1 (tested in a mixture with another compound)	109
COC(=O)CSc1nc(-c2ccccc2)cc(-c2cccs2)c1C#N	112
CCOC(=O)C1CCN(c2ncnc3c2c(-c2ccccc2)cn3-c2ccc(OC)cc2)CC1	106

Compounds from the list above that contain a CF3 group (3):
Compound	GIV Gai3 FP
CC(C)(C)OC(=O)N1CC=C2C(C#N)=C(N)C(C#N)(C#N)C(c3ccc(C(F)(F)F)cc3)C2C1 (configuration not stated)	112
FC(F)(F)c1cccc(-n2cc(-c3ccccc3)c3c(NCCN4CCOCC4)ncnc32)c1	118
CN(C)C1=NC(C(F)(F)F)(C(F)(F)F)N=C(c2ccc(F)cc2)O1	102

The list goes on:
Compound	GIV Gai3 FP
CN1CCN(S(=O)(=O)c2cc(-c3nnc(C4CCC4)o3)co2)CC1	103
CCc1onc(C)c1C1CCCN1C(=O)NCCCOC (configuration not stated)	100
Cc1sc2ncnc(SCC(=O)NC(Cc3ccccc3)C(=O)O)c2c1C (configuration not stated)	102
Cc1cc(Cl)ccc1-n1ncc2c(N(C)C)ncnc21	102
O=C(C1CC(=O)N(C2CCCCC2)C1)N1CCCCCC1 (configuration not stated)	101
Cc1ccc(-c2cc(NC(=O)C3CC3)on2)s1	101
COc1ccc(C2NC(=O)NC(C)=C2C(=O)Nc2ccccc2Cl)cc1OC (configuration not stated)	102
Cc1ccccc1NC(=O)CSC1=C(C#N)C(c2ccccc2Cl)C2=C(CCCC2=O)N1 (configuration not stated)	107
COc1ccc(NC(=O)CN2C(=O)/C(=C3\SC(=S)N(C4CCS(=O)(=O)C4)C3=O)c3ccccc32)cc1 (configuration not stated)	107
COc1ccc(-c2nnc(Sc3cc(C(C)(C)C)c(O)c(C(C)(C)C)c3)c3ccccc23)cc1	103
CCCN(CCC)C(=O)c1cc(NC(C)=O)cnc1N1CCNCC1	98
COC(=O)C1=CN(Cc2ccc(Cl)cc2)C=C(C(=O)OC)C1c1cc(Br)c(O)c(OC)c1	105

Remaining list, next part.
Compound	GIV Gai3 FP
CC(C)OCCCNC(=O)c1ccc(Cn2c(=S)[nH]c3ccc(Br)cc3c2=O)cc1	108
Cn1c(NC(=O)c2ccccc2Cl)cc(=O)n(C)c1=O	103
O=C1Nc2ccccc2C12CCN(S(=O)(=O)c1ccc(F)c(F)c1)C2 (configuration not stated)	103
CCOc1cc(C2C(C(=O)OC)=CN(Cc3ccc(Cl)cc3)C=C2C(=O)OC)cc(Br)c1OC	109
O=C(Nc1ccc(Br)cc1F)N1CCN(c2cc(-c3cccc(F)c3)ncn2)CC1	103
O=S(=O)(c1cc(-c2noc(C3CC3)n2)cs1)N1CCN(c2ccccc2F)CC1	95
COc1ccc(OC)c(Nc2nc(-c3ccccc3O)nc3ccccc23)c1	104
COc1ccc(NC(=O)c2ccc(Oc3nccnc3Sc3ccc(Cl)cc3)cc2)cc1OC	95
CCOC(=O)C1=C(C(=O)OCC)SC(=C2C(=S)C(C)(C)N(C(=O)COc3ccccc3)c3ccc(OC)cc32)S1	102
NS(=O)(=O)c1ccc(NC(=O)c2ccc(=O)n(Cc3ccc(F)cc3)c2)cc1	107
Cc1nc(CCNC(=O)[C@H]2CCCN2S(=O)(=O)c2ccccc2)cs1	101
Cc1cc(N2CCN(C)CC2)n2nc(CN3CCN(c4ccccn4)CC3)nc2n1	100

(continued)
Compound	GIV Gai3 FP
Cc1nccn1CC(C)C(=O)NCc1nc2cccnc2n1Cc1ccc(F)cc1 (configuration not stated)	109
CCOC(=O)C1=C(C)NC2=C(C(=O)C(C(=O)OCC)C(c3cccc(OC)c3)C2)C1c1cccc(Br)c1 (configuration not stated)	96
CC(C)CNC(=O)CCn1c(=O)c2ccccc2n2c(SCC(=O)NC(C)C)nnc12	100
CC(C)N1CCN(S(=O)(=O)c2cc(-c3nnc(C4CCC4)o3)co2)CC1	98
COc1ccc(C2C3=C(CC(C)(C)CC3=O)Nc3ccccc3N2C(=O)NCC2CCCO2)cc1 (configuration not stated)	97
Cn1nc(-c2nnc(-c3ccccc3)o2)c2c1CCN(S(=O)(=O)c1cccc3nsnc13)C2	101
CCOC(=O)C1=C(N)n2c(s/c(=C\c3ccsc3)c2=O)=C(C#N)C1c1ccsc1 (configuration not stated)	108
NC(=O)c1sc2nc3c(c(-c4ccc(Cl)cc4)c2c1N)CCCCC3	108
Cc1cccc(-n2sc3c(c2=S)-c2cc(Cl)ccc2N(C)C3(C)C)c1	120
CC(CS(=O)(=O)c1ccc2c(c1)NC(=O)CCS2)C(=O)N1CCc2ccccc2C1 (configuration not stated)	101
COc1ccc2c(c1)c(=O)c1ccccc1n2CC(=O)Nc1ccc(F)cc1Cl	108
Clc1ccc(-c2nc(N3CCCCC3)c3oc4ccccc4c3n2)cc1	100

(cont.)
Compound	GIV Gai3 FP
Cn1nc(COCc2ccccc2)c2c1CCN(S(=O)(=O)c1ccccc1F)C2	100
CCn1cc(S(=O)(=O)N2CCC(c3cc4n(n3)CCCNC4=O)CC2)cn1	99
O=C1CSc2sc(=O)sc2S1	110
Oc1ccc(C2(c3ccccc3)C=Cc3c(ccc4ccccc34)O2)cc1 (configuration not stated)	101
O=C(NCCCN1CCCC1)c1cccc(Nc2ncc(-c3cccc(F)c3)cn2)c1	110

Compound activity deposited in PubChem BioAssay by ICCB-Longwood Screening Facility, Harvard Medical School.

An excerpt; count on the stated rates, not on these rows.
